Source: PubChem BioAssay
Ecoli rRNA inh: selective bacterial rRNA inhibition in E. coli; E. coli WT GFP vs humanized-ribosome RFP mutants, fluorescence, 24 h; active compounds read low; DMSO median 0, no signal -100; GFP signal change (wild-type ribosome), % (no concentration beside the values); 350,000 compounds, 1.6% hits; AID 720706;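 active means significant combined selectivity score with lowered wild-type GFP, culture density cut under 30%, mutant RFP and density less affected; inactive means any of these conditions unmet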; further: one replicate is shown; some compounds called inactive have numbers as strong as hits
Ecoli rRNA inh OD600: recorded beside Ecoli rRNA inh, whose call it bears; OD600 change, %; measured here: OD600 growth;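 optical density of the mix in the first replicate; 0 = DMSO median and -100 = no signal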
Ecoli rRNA inh RFP: also measured in Ecoli rRNA inh; calls as there; RFP signal change, %; measured here: RFP humanized mutant strains;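 first replicate; 0 = DMSO median and -100 = no signal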
* hit, by the source's call; & = joins results of further samples. A portion of the library; the hit share may differ from the screen's.

SMILES	Ecoli rRNA inh	Ecoli rRNA inh OD600	Ecoli rRNA inh RFP
CC(C)(C)C(=O)N1Cc2cc(N3CCOCC3)ccc2-n2nncc2C1	-0.2	3.1	-3.7
O=C(Cc1cccnc1)N1CCCCN2[C@@H](CO)[C@H](c3ccc(C#CC4(O)CCCC4)cc3)[C@@H]2C1	3.1	11.6	-2.8
COc1nc2ccccc2nc1N1CC1	20.1	15.9	4.2
O=C(Cc1ccccn1)N1CCCCN2[C@@H](CO)[C@H](c3ccc(Br)cc3)[C@@H]2C1	1.7	27.9	0.8
O=C(Cc1ccccn1)N1CCCCN2[C@H](C1)[C@H](c1ccc(-c3ccccc3)cc1)[C@@H]2CO	0.0	-7.2	5.1
O=C(Cc1ccncc1)N1CCCCN2[C@H](C1)[C@@H](c1ccc(C#Cc3ccccc3F)cc1)[C@@H]2CO	-35.0	-60.3	7.4
CC1(C)CC(=O)CC(C)(C)N1O	3.4	4.3	-1.8
O=C(C1CCCCC1)N1Cc2ccccc2-n2nncc2C1	5.8	-16.3	2.8
O=C(O)C[C@H]1CC[C@@H]2NC[C@H](O)COC[C@H]2O1	6.6	21.4	1.0
O=C(O)[C@H]1[C@H](CO)[C@H]2Cn3c(ccc(-c4ccncc4)c3=O)[C@@H]1N2C(=O)C1CCCCC1	0.3	-2.6	-0.8
c1ccc2c(c1)CN(Cc1ccc3c(c1)OCO3)Cc1cnnn1-2	7.3	0.5	9.2
FC(F)(F)CN1C[C@@H]2C(c3ccc(Br)cc3)[C@H](C1)N2CC1CC1 (stereo partly specified)	-56.9	-79.7	-9.4
CC(C)CN1Cc2cc(-c3cccc(F)c3)ccc2-n2nncc2C1	-19.4	-49.0	-9.0
COC(=O)C1C(c2ccc(I)cc2)CC2CCC1N2C (stereo unspecified)	-1.1	-0.8	-0.7
O=C(O)[C@@H]1[C@@H](CO)[C@@H]2Cn3c(ccc(-c4ccccc4)c3=O)[C@H]1N2S(=O)(=O)c1ccccc1F	2.1	3.8	-4.0
O=S(=O)(c1cc(Cl)cc(Cl)c1)N1Cc2cc(-c3ccccc3)ccc2-n2nncc2C1	7.7	9.3	-0.2
COP(=O)(OC)OC=C(Cl)Cl	2.7	11.9	-1.8
CC(C)COC(=O)N1Cc2ccccc2-n2nncc2C1	-2.2	-3.2	1.9
COC(=O)[C@H]1[C@H](CO)[C@H]2Cn3c(ccc(-c4ccccc4)c3=O)[C@@H]1N2CC1CCCCC1	-11.0	-44.2	5.2
Cc1nc(-c2cccc(CN(C)C(=O)Oc3ccc([N+](=O)[O-])cc3)c2)no1	-19.1*	-11.7*	3.3*
O=C(Cc1ccccn1)N1CCCCN2[C@H](C1)[C@@H](c1ccc(-c3ccccc3F)cc1)[C@@H]2CO	-0.7	0.6	4.9
COc1ccc(C#Cc2ccc([C@@H]3[C@@H](CO)N4CCCCN(C(=O)Cc5ccncc5)C[C@@H]34)cc2)cc1	-3.7	-40.8	17.8
Cc1ccc(OC(=O)N(C)C[C@H]2OCc3cnnn3CCCC(=O)N([C@@H](C)CO)C[C@H]2C)cc1	24.9&4.3	12.6&2.2	2.3&0.0
C[C@H](CO)N1C[C@H](C)[C@@H](CN(C)C(=O)Oc2ccccc2)OCc2ccccc2-c2c(n(C)c3ccccc23)C1=O	-4.9	-8.7	8.7

Look-ups from the results shown.
O=C(Cc1cccnc1)N1CCCCN2[C@@H](CO)[C@H](c3ccc(C#CC4(O)CCCC4)cc3)[C@@H]2C1 @ Ecoli rRNA inh RFP = -2.8
Cc1ccc(OC(=O)N(C)C[C@H]2OCc3cnnn3CCCC(=O)N([C@@H](C)CO)C[C@H]2C)cc1 @ Ecoli rRNA inh RFP = 2.3&0.0
FC(F)(F)CN1C[C@@H]2C(c3ccc(Br)cc3)[C@H](C1)N2CC1CC1 (stereo partly specified) @ Ecoli rRNA inh RFP = -9.4
CC(C)CN1Cc2cc(-c3cccc(F)c3)ccc2-n2nncc2C1 @ Ecoli rRNA inh OD600 = -49.0
COP(=O)(OC)OC=C(Cl)Cl @ Ecoli rRNA inh RFP = -1.8

New compounds follow
SMILES	Ecoli rRNA inh	Ecoli rRNA inh OD600	Ecoli rRNA inh RFP
C[C@]1(O)CCC2C3CC[C@H]4C[C@@H](OC(=O)[C@@H](N)CCCCN)CC[C@]4(C)C3CC[C@@]21C (stereo partly specified)	-61.5	-78.9	-16.9
COc1ccccc1CN1[C@H](CO)[C@H](c2ccccc2)C12CN(C(=O)Cc1ccccc1)C2	-13.4	-36.7	-1.9
Cc1cccc(S(=O)(=O)N2[C@@H]3Cn4c(ccc(-c5ccccc5)c4=O)[C@H]2[C@@H](C(=O)O)[C@@H]3CO)c1	-0.2	-6.6	0.3
O=C1CNC[C@@H]2[C@H](c3ccc(Br)cc3)[C@H](CO)N12	-3.5	-21.1	-1.7
N#Cc1cccc(-c2ccc([C@H]3[C@H]4CN(C(=O)Cc5ccncc5)CCCCN4[C@H]3CO)cc2)c1	0.0	5.6	1.8
O=C(Cc1ccccn1)N1CCCCN2[C@H](C1)[C@@H](c1ccc(-c3ccc(F)cc3)cc1)[C@@H]2CO	6.0	-11.4	1.7
COC(=O)[C@@H]1[C@@H](CO)[C@@H]2Cn3c(ccc(-c4cccnc4)c3=O)[C@H]1N2CCc1ccccc1	0.5	-4.5	-2.0
O=C(Cc1ccccn1)N1CCCCN2[C@H](C1)[C@H](c1ccc(-c3ccccc3F)cc1)[C@@H]2CO	2.5	12.6	-0.1
C[C@@H]1CN([C@@H](C)CO)C(=O)CCCn2cc(nn2)CO[C@H]1CN(C)C(=O)Oc1cccc2ccccc12	-0.1&-0.8	5.7&-0.2	-0.7&0.9
COC(=O)[C@H]1[C@H](CO)[C@H]2Cn3c(ccc(C4=CCCC4)c3=O)[C@@H]1N2S(=O)(=O)c1cn(C)cn1	1.7	3.5	-2.5
O=C(Cc1cccnc1)N1CCCCN2[C@H](CO)[C@H](c3ccc(C#CC4CCCC4)cc3)[C@H]2C1	-36.9	-69.2	3.9
O=C(O)[C@@H]1[C@@H](CO)[C@@H]2Cn3c(ccc(-c4ccc(F)cc4)c3=O)[C@H]1N2CC1CCCCC1	-0.4	3.4	-1.9

Reformatted in markdown: entries from further up.
| SMILES | Ecoli rRNA inh | Ecoli rRNA inh OD600 | Ecoli rRNA inh RFP |
| --- | --- | --- | --- |
| O=C(Cc1ccccn1)N1CCCCN2[C@H](C1)[C@@H](c1ccc(-c3ccccc3F)cc1)[C@@H]2CO | -0.7 | 0.6 | 4.9 |
| COc1ccc(C#Cc2ccc([C@@H]3[C@@H](CO)N4CCCCN(C(=O)Cc5ccncc5)C[C@@H]34)cc2)cc1 | -3.7 | -40.8 | 17.8 |
| Cc1ccc(OC(=O)N(C)C[C@H]2OCc3cnnn3CCCC(=O)N([C@@H](C)CO)C[C@H]2C)cc1 | 24.9&4.3 | 12.6&2.2 | 2.3&0.0 |
| C[C@H](CO)N1C[C@H](C)[C@@H](CN(C)C(=O)Oc2ccccc2)OCc2ccccc2-c2c(n(C)c3ccccc23)C1=O | -4.9 | -8.7 | 8.7 |
| C[C@]1(O)CCC2C3CC[C@H]4C[C@@H](OC(=O)[C@@H](N)CCCCN)CC[C@]4(C)C3CC[C@@]21C (stereo partly specified) | -61.5 | -78.9 | -16.9 |

(further entries)
SMILES	Ecoli rRNA inh	Ecoli rRNA inh OD600	Ecoli rRNA inh RFP
C#C[C@]1(O)CC[C@H]2[C@@H]3[C@H](O)C[C@H]4C[C@@H](O)CC[C@]4(C)[C@H]3CC[C@@]21C	10.1	11.2	0.8
COc1ccc(C#Cc2ccc([C@@H]3[C@@H](CO)N4CCCCN(C(=O)Cc5ccccc5)C[C@H]34)cc2)cc1	-36.6	-42.8	0.4
COc1ccc(C#Cc2ccc([C@@H]3[C@@H](CO)N4CCCCN(C(=O)Cc5ccccc5)C[C@@H]34)cc2)cc1	2.8	9.1	6.7
COc1ccc2nc(-c3ccc(CN4CCC(n5c(=O)[nH]c6ccccc65)CC4)cc3)c(-c3ccccc3)nc2c1	-6.7	0.9	2.8
O=C(Cc1cccnc1)N1CCCCN2[C@H](C1)[C@H](c1ccc(C#CC3(O)CCCC3)cc1)[C@@H]2CO	5.0	-3.7	0.1
COC(=O)[C@@H]1[C@@H](CO)[C@@H]2Cn3c(ccc(-c4cccnc4)c3=O)[C@H]1N2S(=O)(=O)c1ccccc1C	-2.5	0.8	-1.3
COc1ccc(-c2ccc([C@@H]3[C@H]4CN(C(=O)Cc5ccncc5)CCCCN4[C@H]3CO)cc2)cc1	5.8	-6.6	3.6
OC[C@H]1[C@@H]2c3ccccc3NC[C@@H]2N1Cc1cccnc1	1.3	6.7	-1.9
CN1[C@@H]2c3cccc(=O)n3C[C@H]1[C@H](CO)[C@H]2C(=O)NCC1CC1	0.9	2.2	3.2
O=c1[nH]c2ccccc2n1C1CCN(C(c2ccccc2OC(F)(F)F)c2nnnn2Cc2ccccc2)CC1 (stereo unspecified)	28.7	13.2	-2.2
O=C1NCN(c2ccccc2)C12CCN(C(c1ccccc1OC(F)(F)F)c1nnnn1Cc1ccccc1)CC2 (stereo unspecified)	12.9	7.5	-1.8
CCOC(=O)C1=C(C(=O)OCC)C2(c3ccccc3)c3ccccc3C1(C)N2C (stereo unspecified)	14.8	18.1	24.6

A different layout for part of the listing above.
Below each SMILES – Ecoli rRNA inh	Ecoli rRNA inh OD600	Ecoli rRNA inh RFP
O=C(Cc1cccnc1)N1CCCCN2[C@H](C1)[C@H](c1ccc(C#CC3(O)CCCC3)cc1)[C@@H]2CO
→ 5.0	-3.7	0.1
COC(=O)[C@@H]1[C@@H](CO)[C@@H]2Cn3c(ccc(-c4cccnc4)c3=O)[C@H]1N2S(=O)(=O)c1ccccc1C
→ -2.5	0.8	-1.3
COc1ccc(-c2ccc([C@@H]3[C@H]4CN(C(=O)Cc5ccncc5)CCCCN4[C@H]3CO)cc2)cc1
→ 5.8	-6.6	3.6
OC[C@H]1[C@@H]2c3ccccc3NC[C@@H]2N1Cc1cccnc1
→ 1.3	6.7	-1.9
CN1[C@@H]2c3cccc(=O)n3C[C@H]1[C@H](CO)[C@H]2C(=O)NCC1CC1
→ 0.9	2.2	3.2

Additional entries follow:
SMILES	Ecoli rRNA inh	Ecoli rRNA inh OD600	Ecoli rRNA inh RFP
CCC(c1nnnn1C(C)(C)C)N1CCC2(CC1)C(=O)NCN2c1ccccc1 (stereo unspecified)	-7.5	-6.7	0.9
N#Cc1cccc(-c2ccc([C@@H]3[C@@H](CO)N4CCCCN(C(=O)Cc5cccnc5)C[C@@H]34)cc2)c1	-7.8	-3.9	3.1
Cc1ccc(OC(=O)N(C)C[C@H]2OCc3cnnn3CCCC(=O)N([C@H](C)CO)C[C@H]2C)cc1	2.4&-0.4	4.5&-1.2	-1.8&-1.1
Cc1ccccc1-c1ccc2c(c1)C1c3c(-c4ccccc4)nnn3-c3ccccc3C(=O)N1CC2 (stereo unspecified)	8.1	5.5	1.2
S=C(NCCc1ccccc1)N1Cc2cc(-c3ccccc3)ccc2-n2nncc2C1	1.8	5.0	3.1
COc1ccc(OC(=O)N(C)C[C@@H]2OCc3ccccc3-c3c(n(C)c4ccccc34)C(=O)N([C@@H](C)CO)C[C@@H]2C)cc1	-1.2	-7.3	7.6
CN1[C@@H](CO)[C@@H]2c3ccccc3NC[C@@H]21	8.3	12.0	-1.8
O=C1NCN(c2ccccc2)C12CCN(C(CCc1ccccc1)c1nnnn1C1CCCCC1)CC2 (stereo unspecified)	19.1	7.7	0.6
CNC(=O)Oc1c(C)[nH]ccc1=O	10.0	19.2	-0.4
O=C(CCc1ccccc1)N1Cc2cc(-c3cccc(F)c3)ccc2-n2nncc2C1	-12.7	-19.0	-1.4
O=C(Cc1ccncc1)N1CCCCN2[C@@H](CO)[C@@H](c3ccc(C#Cc4ccccc4F)cc3)[C@@H]2C1	-8.6	-41.0	3.0
C[C@H](CO)N1C[C@H](C)[C@@H](CN(C)C(=O)Oc2ccccc2)OCc2cnnn2CCCC1=O	0.6	10.1	-2.0
CCOC(=O)[C@]12Cc3ccccc3[C@H]1N(Cc1ccccc1)C(=O)c1cc(F)c(F)cc12	-6.2	-8.3	5.3
CC(C)CN1Cc2cc(-c3ccccc3)ccc2-n2nncc2C1	-21.9	-63.0	6.0
O=C(Cc1ccccc1)N1C[C@H]2[C@@H](c3ccccc31)[C@@H](CO)N2Cc1ccccc1	-20.0	-38.2	-6.1
C[C@@H]1CN([C@H](C)CO)C(=O)c2c(c3ccccc3n2C)-c2ccccc2CO[C@@H]1CN(C)C(=O)Oc1ccccc1	-3.8	-10.2	5.7
COc1ccc(C(=O)OCC2CN2c2cccc([N+](=O)[O-])c2)cc1 (stereo unspecified)	53.9	-6.4	18.1
CN1c2ccc(Br)cc2[C@H]2NCC[C@H]2[C@H]1CO	7.7	5.8	2.1
COc1c(OP2(=S)OCC(C)(C)CO2)cnn(C2CCCCC2)c1=O	-24.0	-39.4	-0.4
CCOC(=O)[C@]12Cc3ccccc3[C@H]1N(CCC(=O)OC)C(=O)c1ccccc12	-34.4	-39.3	-6.5

One compound at a time (already shown). Order of values: Ecoli rRNA inh | Ecoli rRNA inh OD600 | Ecoli rRNA inh RFP
`C[C@H](CO)N1C[C@H](C)[C@@H](CN(C)C(=O)Oc2ccccc2)OCc2ccccc2-c2c(n(C)c3ccccc23)C1=O` across the screens: -4.9 | -8.7 | 8.7
`O=C1CNC[C@@H]2[C@H](c3ccc(Br)cc3)[C@H](CO)N12` across the screens: -3.5 | -21.1 | -1.7
